Arbovirus anti – blocks arbovirus infection; arbovirus infection cell-based antiviral screen; inhibition, % at 10 µM; 200,000 compounds, 0.37% hits;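 active = inhibition from about 30%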;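 also: bluetongue infection of BSR cells; cell survival read as ATP light after 72 h; 0% = infected wells without compound and 100% = uninfected wells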
RecA intein inh – Mtb RecA intein splicing inhibition; P9WHJ3; cell-free RecA intein splicing, fluorescence; inhibition, %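 (about 9 µM by stock and volumes)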; 290,000 compounds, 0.75% hits; in the data active = inhibition above about 30%; inconclusive = no clear call, values can overlap the other calls;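 also: 0% = vehicle wells and 100% = reference inhibitor control wells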
Target sequence (P9WHJ3 whole entry, looked up): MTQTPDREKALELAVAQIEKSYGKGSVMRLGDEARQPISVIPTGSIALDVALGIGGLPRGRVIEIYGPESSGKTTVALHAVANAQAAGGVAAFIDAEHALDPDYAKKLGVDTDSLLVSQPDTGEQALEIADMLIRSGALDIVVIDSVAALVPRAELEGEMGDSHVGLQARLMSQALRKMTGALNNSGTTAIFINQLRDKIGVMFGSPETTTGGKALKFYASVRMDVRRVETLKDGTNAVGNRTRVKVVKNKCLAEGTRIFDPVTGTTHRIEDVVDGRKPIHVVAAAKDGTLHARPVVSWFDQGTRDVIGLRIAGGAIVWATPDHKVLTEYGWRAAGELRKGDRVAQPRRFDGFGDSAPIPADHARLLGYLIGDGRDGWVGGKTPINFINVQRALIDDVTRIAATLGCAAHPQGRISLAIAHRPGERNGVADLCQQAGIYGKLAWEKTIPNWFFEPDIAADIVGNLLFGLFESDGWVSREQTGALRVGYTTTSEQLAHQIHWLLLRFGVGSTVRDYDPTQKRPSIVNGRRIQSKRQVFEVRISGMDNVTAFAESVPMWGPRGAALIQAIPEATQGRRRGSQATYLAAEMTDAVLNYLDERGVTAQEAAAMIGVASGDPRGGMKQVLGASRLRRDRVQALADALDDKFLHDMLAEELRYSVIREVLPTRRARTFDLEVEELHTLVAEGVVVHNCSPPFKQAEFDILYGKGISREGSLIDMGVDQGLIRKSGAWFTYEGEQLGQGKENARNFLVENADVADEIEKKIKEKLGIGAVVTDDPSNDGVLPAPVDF
YopH inh – inhibitors of Yersinia enterocolitica YopH tyrosine phosphatase | 140,000 compounds, 0.16% hits | fluorescence Ex485/Em525 | inhibition, %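 (about 10 µM by stock and volumes)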;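 active = inhibition of 50% or more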;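 also: controls were vehicle for no effect and minimum signal wells for full effect; inactives centre near -20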
Mtb growth – M. tuberculosis H37Rv growth inhibitors, H37Rv strain (AID 1626). M. tuberculosis H37Rv growth inhibition; higher % means a stronger effect. inhibition, % at 10 µM, or IC50 in µM where a hit was titrated. 220,000 compounds, 0.95% hits;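 active = confirmed in a dose series; inconclusive = inhibition above 80% but not taken into the dose series; inactive = below 80% or under 30% at every dose of the series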;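 also: bacteria incubated seven days before Alamar blue readout; 0% = bacteria only wells and 100% = bacteria with antibiotic wells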
Mtb betalactam – beta-lactam sensitization of Mtb H37Rv. M. tuberculosis H37Rv growth with meropenem, percent inhibition; hits of this screen are not shown here. inhibition, % at 25 µM. 330,000 compounds, 0.27% hits. AID 434955;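 active = about 74% or more and at least 40 points above the plate without the antibiotic, then above 30% in a dose series; inconclusive = first-round hits that could not be retested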;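 also: growth measured after seven days incubation then overnight dye step; 0% = bacteria only wells and 100% = bacteria with antibiotic; twin plates without the antibiotic show which effects depend on it; some results filed as inactive read as strong as hits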
Arbovirus anti repeat – further read-out of Arbovirus anti, marked with its call; inhibition, %; measured here: 10K subset replicate screen; many hits read low in the repeat;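 first of two repeat runs on a subset; 0% = infected and 100% = uninfected wells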
* = called active by the depositor; ? = inconclusive; · = no result given. An excerpt; the hit share may differ from the screen's.

SMILES	Arbovirus anti	RecA intein inh	YopH inh	Mtb growth	Mtb betalactam	others
O=C1CN2C(=Nc3ccc(Br)cc3C2c2ccccc2)CCN1 (centres undefined)	-6	-0.5	-31	0%	-7
Cc1ccc(OCc2nnnn2-c2ccccc2)cc1	-1	1.9	-17	15%	-3
CC(C)NC(=O)Cn1c(SCC(=O)N2c3ccccc3CC2C)nc2ccccc21 (centres undefined)	4	1.3	-14	-3%	0
Fc1ccccc1COc1ccc(/C=N/n2cnnc2)cc1	-19	4.7	-58	2%	2	Arbovirus anti repeat=-10
COC(=O)c1ccc(-n2cnc3ccccc32)nc1	-5	-0.8	·	70%	96
Cc1ccc(S(=O)(=O)N(C)C)cc1NC(=O)/C=C/c1cccs1	-5	-2.0	-16	-5%	4
Cn1c(SCC(=O)N2CCCC2)nnc1-c1ccc2c(c1)OCO2	·	1.1	·	·	-4
C#Cc1ccc(C(=O)NCc2ccc(N3CCCC3=O)cc2)cc1	-2	-3.6	·	0%	-7
CCc1ccc(-c2nc(SCC(=O)N(CCOC)c3c(N)n(Cc4ccccc4)c(=O)[nH]c3=O)n[nH]2)cc1	·	-0.3	·	·	0
CN(C)C(CNC1CC(C)(C)NC(C)(C)C1)c1cccc(F)c1 (centres undefined)	·	0.3	·	·	0
CC1(C(=O)N/N=C/c2ccccc2)CC1(Cl)Cl (centres undefined)	·	-0.6	·	·	3
O=C(CSc1n[nH]c(=O)n1-c1cccnc1)Nc1ccccc1Cl	·	-1.8	·	·	-7
CCN1C(=O)NC(c2cc(Br)ccc2OC)C(C(=O)OC)=C1C (centres undefined)	2	·	-61	3%	-11
CCOC(=O)C1CCCN(c2oc(-c3ccc(F)cc3)nc2C#N)C1 (centres undefined)	15	7.5	·	4%	2
O=C(Nc1ccc2c(c1)OCCO2)c1ccccn1	-8	0.9	·	5%	6
C=CCn1c(C)cc(C2=NNC(=Nc3ccc(C)cc3)SC2)c1C	0	5.0	·	0%	-4
O=C(NCCCN1CCOCC1)c1cccnc1SCc1ccccc1Cl	-6	0.3	·	-2%	7
COc1ccc(C2c3cc(OC)c(OC)cc3CCN2C2CC(=O)N(c3ccccc3)C2=O)cc1OC (centres undefined)	-3	-0.8	-3	-1%	-2
O=C(Nc1ccc(F)cc1)Nc1ccc([N+](=O)[O-])cn1	-12	1.8	·	0%	12
Cc1nc(C(=O)Nc2cc(F)cc(Cl)c2)sc1C1(C)CC(c2ccccc2)=NO1 (centres undefined)	·	3.4	·	-10%	16
Cc1[nH]n(C(N)=S)c(=O)c1N=Nc1cccc([N+](=O)[O-])c1C	·	7.3	·	·	6
CCCCCCCC(=O)NN1CCOCC1	4	-0.3	-69	6%	6
CCOc1cc(S(=O)(=O)N2CCC(Cc3ccccc3)CC2)c(OCC)cc1-n1cnnn1	7	5.3	-54	8%	0
CC(Sc1ccc(Cl)cc1)C(=O)N(C)CC(=O)Nc1ccc(N2CCOCC2)cc1 (centres undefined)	·	-1.1	·	·	-7
OCCC1CN(Cc2cccc3nccnc23)CCN1Cc1ccc(F)cc1 (centres undefined)	·	1.1	·	0%	-6

Looked up by structure from above, 2 records:
SMILES	Arbovirus anti	RecA intein inh	YopH inh	Mtb growth	Mtb betalactam	others
O=C1CN2C(=Nc3ccc(Br)cc3C2c2ccccc2)CCN1 (centres undefined)	-6	-0.5	-31	0%	-7
CCN1C(=O)NC(c2cc(Br)ccc2OC)C(C(=O)OC)=C1C (centres undefined)	2	·	-61	3%	-11

The listing picks up with the five entries that preceded the break.
SMILES	Arbovirus anti	RecA intein inh	YopH inh	Mtb growth	Mtb betalactam	others
Cc1[nH]n(C(N)=S)c(=O)c1N=Nc1cccc([N+](=O)[O-])c1C	·	7.3	·	·	6
CCCCCCCC(=O)NN1CCOCC1	4	-0.3	-69	6%	6
CCOc1cc(S(=O)(=O)N2CCC(Cc3ccccc3)CC2)c(OCC)cc1-n1cnnn1	7	5.3	-54	8%	0
CC(Sc1ccc(Cl)cc1)C(=O)N(C)CC(=O)Nc1ccc(N2CCOCC2)cc1 (centres undefined)	·	-1.1	·	·	-7
OCCC1CN(Cc2cccc3nccnc23)CCN1Cc1ccc(F)cc1 (centres undefined)	·	1.1	·	0%	-6
CC(C)CCNC(=O)C1CCN(S(=O)(=O)c2ccc3c(c2)CCC(=O)N3)CC1	-5	·	-40	-15%	0
O=C(/C=C/c1ccc2c(c1)OCO2)Nc1nc2ccc(F)cc2s1	·	-3.7	·	-1%	1
Cc1ccc(/C=N/NC(=O)c2cccc(S(=O)(=O)Nc3cccc(Cl)c3)c2)o1	-1	-2.1	·	-2%	4
O=C1c2ccccc2C(=O)N1CCCCSc1nc2ccccc2c(=O)n1CCCN1CCOCC1	21	1.6	·	4%	6
OCCn1nc2c3ccccc3nc-2n(-c2ccccc2)c1=S	10	-1.8	-24	0%	-4
NC1=NC(c2ccccc2Cl)n2c(nc3ccccc32)N1 (centres undefined)	-6	2.7	-43	7%	5
O=C(COC(=O)CC1CCCC1)Nc1ccc(OC(F)F)cc1	0	2.4	·	34%	3
Cc1cc(-c2nnc(-c3ccccc3)c(-c3ccccc3)n2)c(C)o1	0	14	-17	-3%	20
Cc1cc2ncn(/N=C/c3ccc(-c4ccccc4)o3)c2cc1C	7	2.7	-4	1%	-5
O=[N+]([O-])c1cccc(S(=O)(=O)NCCCn2ccnc2)c1	·	-0.9	·	·	4
CCOC(=O)Cc1nnc(NC(=O)CSc2nnc3c4ccccc4n(C(C)C)c3n2)s1	0	2.8	-42	-8%	-8
CCOC(=O)C1C(c2cccnc2)NC(=O)NC1(O)C(F)(F)F (centres undefined)	4	1.6	·	2%	-7
NC(=O)C1CCN(S(=O)(=O)c2cc3c4c(c2)CCN4C(=O)CC3)CC1	·	1.5	·	·	-8
CCCCn1nnc(NC(=S)NC(=O)c2cccs2)n1	10	2.0	-6	73%	29
CCCCNc1c(-c2cccc(-c3cc(C(C)=O)cs3)c2)nc2cc(C)ccn12	·	6.9	·	·	19
CSc1nnc(-c2ccc(Cl)cc2Cl)o1	-2	2.7	-156	-13%	51
CCN(CC)CCNC(=O)c1cc2c(-c3ccc(Cl)cc3)nn(C)c2s1	-27	·	-12	0%	13	Arbovirus anti repeat=-18
COC(=O)C1=C(C)N(c2ccc(Cl)cc2)/C(=C/c2cccs2)C1=O	4	-5.3	6	8%	-8
COCCOC(=O)C1=C(C)NC(=O)NC1c1c(F)cccc1Cl (centres undefined)	7	-2.1	-31	-2%	3	Arbovirus anti repeat=3
CCOc1cc(/C=N/NC(=O)c2ccncc2)ccc1OS(C)(=O)=O	4	1.6	-19	?	98
CCOc1cc(S(=O)(=O)NCCCN2CCOCC2)ccc1F	·	-0.1	·	·	-12
Cc1nnc2sc(-c3cccc4ccccc34)nn12	-1	3.2	-26	-2%	-20
CCOC(=O)CNC(=O)OC1CCN2Cc3ccccc3N=C12 (centres undefined)	·	-1.2	·	·	3
O=C(CCC(=O)NCCO)NCCO	4	-1.5	·	-1%	4
CCn1c(O)c(/C=N/NC(=O)c2ccncc2)c(=O)n(CC)c1=S	27	11	-27	?	·

Nothing new here: entries from further up.
SMILES	Arbovirus anti	RecA intein inh	YopH inh	Mtb growth	Mtb betalactam	others
CC(C)CCNC(=O)C1CCN(S(=O)(=O)c2ccc3c(c2)CCC(=O)N3)CC1	-5	·	-40	-15%	0
O=C(/C=C/c1ccc2c(c1)OCO2)Nc1nc2ccc(F)cc2s1	·	-3.7	·	-1%	1
Cc1ccc(/C=N/NC(=O)c2cccc(S(=O)(=O)Nc3cccc(Cl)c3)c2)o1	-1	-2.1	·	-2%	4
O=C1c2ccccc2C(=O)N1CCCCSc1nc2ccccc2c(=O)n1CCCN1CCOCC1	21	1.6	·	4%	6

The listing continues:
SMILES	Arbovirus anti	RecA intein inh	YopH inh	Mtb growth	Mtb betalactam	others
Cc1ccc(NC(=O)C(C)SCc2ccccc2)cc1 (centres undefined)	·	2.5	·	·	24
COCCSc1nnc(NC(=O)c2ccc(OC)c([N+](=O)[O-])c2)s1	-6	0.4	·	-6%	-5
O=C(C1CC(=O)N(c2ccc(F)cc2)C1)N1CCCCCC1 (centres undefined)	·	1.6	·	·	4
CSCCC(NS(=O)(=O)c1ccc(Cl)cc1)C(=O)OCc1cccc(Cl)c1 (centres undefined)	9	7.0	-22	0%	22
CCC(OC(=O)c1cccs1)C(=O)NCc1ccco1 (centres undefined)	-1	-0.4	-38	-3%	-1
O=C(Nn1cnnc1)C(c1ccccc1)c1ccccc1	-7	-1.7	-6	1%	-1
COc1ccc(-n2c(-c3ccccc3)nc(=S)c3c2CCCC3)cc1	2	-2.3	8	·	-8
Cc1ccc(-c2nc(Nc3ccccc3)n[nH]2)cc1	-2	·	-25	4%	2
CC(NC(=O)Cc1ccccc1F)c1ccc(F)cc1 (centres undefined)	7	-0.9	·	8%	-2
CCCCNC(=O)CCC(=O)NNc1nc2ccccc2c2nc(C)nn12	14	-6.1	-14	-3%	2
O=C(N[C@@H](Cc1ccccc1)C(=O)NCc1ccc(F)cc1)C1CCNCC1	·	-0.2	·	·	2
C=CCOc1ccc(CNc2nccs2)cc1OC	-11	-0.2	-25	-6%	1
COc1cccc(CNCC(=O)Nc2ccc(N3CCOCC3)cc2)c1	-3	-4.1	·	-2%	1
COc1ccc(-n2c(SCC(=O)NNC(=O)c3ccccc3C)nnc2-c2ccncc2)cc1	5	0.9	-40	-3%	-7
Nc1nc2nc(-c3ccc(F)cc3)cc(C(F)(F)F)n2n1	-5	-8.7	·	-5%	0
Cc1cc(Nc2ccc(C)c(Br)c2)n2nc(C)nc2n1	-6	0.8	-35	-4%	7	Arbovirus anti repeat=-5
COc1cccc(CNC(=O)CCC2CCCN(C(=O)c3cc(C4CC4)[nH]n3)C2)c1 (centres undefined)	2	-1.3	·	2%	-3
COc1ccc(-c2cc(CCCC(=O)N3CCN(c4ccc(OC)cc4)CC3)no2)cc1	-7	0.2	-3	4%	-3
O=[N+]([O-])c1ccc(CNCCc2ccccc2)cc1	·	-0.1	·	·	1
Cc1cccc(Cn2cc(C=O)c3ccccc32)c1	·	4.6	·	·	2
COC(=O)c1ccc(NC(=O)c2ccc(N(C)S(C)(=O)=O)cc2)cc1	-1	-0.3	24	3%	0
COC(=O)/C=C(\C)N=Nc1c(O)[nH]c2ccccc12	·	1.2	·	8%	2
O=[N+]([O-])/C=C1/CCCCCN1	4	·	·	4%	2

Structures shown so far containing a nitro group on carbon, in the order listed:
SMILES	Arbovirus anti	RecA intein inh	YopH inh	Mtb growth	Mtb betalactam	others
O=C(Nc1ccc(F)cc1)Nc1ccc([N+](=O)[O-])cn1	-12	1.8	·	0%	12
Cc1[nH]n(C(N)=S)c(=O)c1N=Nc1cccc([N+](=O)[O-])c1C	·	7.3	·	·	6
O=[N+]([O-])c1cccc(S(=O)(=O)NCCCn2ccnc2)c1	·	-0.9	·	·	4
COCCSc1nnc(NC(=O)c2ccc(OC)c([N+](=O)[O-])c2)s1	-6	0.4	·	-6%	-5
O=[N+]([O-])c1ccc(CNCCc2ccccc2)cc1	·	-0.1	·	·	1
O=[N+]([O-])/C=C1/CCCCCN1	4	·	·	4%	2

Assay outcomes deposited in PubChem by several laboratories.
